VACV mCherry inh: vaccinia inhibition (mCherry reporter) | Vaccinia virus mCherry reporter infection, fluorescence; about a quarter of the inactives have no number | Potency, µM (doses to about 36.5 µM), for the others: at the top dose activity change, negative = inhibition, usual class: inhibitors | hit rate 0.63% among 310,000 | AID 720579; active = well fitted inhibition curve with a large enough effect; inconclusive = small, poorly fitted or top-dose-only effect; inactive = no such curve, though single readings can be large or run the other way; tested in A549 cells; note: nearly all actives have a fitted effect of over 35% in size; inactives centre near -10
VACV Venus inh: inhibitors of vaccinia virus (Venus reporter); Vaccinia virus Venus reporter expression, fluorescence; Potency, µM (top dose mostly 36.5 µM), without a hit: at the highest dose activity change, negative = inhibition, actives largely listed as inhibitors; hit rate 0.46% among 330,000; AID 720580; active means well fitted inhibition curve with a large enough effect; inconclusive means small, poorly fitted or top-dose-only effect; inactive means no such curve, though single readings can be large or run the other way; tested in A549 cells; note: nearly all actives have a fitted effect of over 30% in size; inactives centre near -10
Numbers without * were called inactive; i = inactive; ? = inconclusive; / = no result given; & = joins results of further samples. % is set by controls: 0 for no effect and ±100 for the full control effect; potency is the fitted concentration of half-maximal effect. This is a random part of the collection (roughly 0.88% active in at least one column).

The opening 2 entries (preview)
nr	SMILES	VACV mCherry inh	VACV Venus inh
1	CN1CCN(c2nc(N3CCN(c4ccccc4)CC3)ncc2F)CC1	?	?
2	CC(=O)CSc1nc(-c2cccs2)c(C#N)c(=O)[nH]1	i	-5%

Main list, previewed entries included:
nr	SMILES	VACV mCherry inh	VACV Venus inh
1	CN1CCN(c2nc(N3CCN(c4ccccc4)CC3)ncc2F)CC1	?	?
2	CC(=O)CSc1nc(-c2cccs2)c(C#N)c(=O)[nH]1	i	-5%
3	CCN1C/C(=C/c2ccc(OC)c(O)c2)C(=O)/C(=C/c2ccc(OC)c(O)c2)C1	?	?
4	O=C(NC1CCS(=O)(=O)C1)/C(=C/c1ccco1)NC(=O)c1ccccc1 (stereo not drawn)	i	4%
5	CCOC(=O)c1c(NC(=O)c2ccc(N3C(=O)[C@@H]4[C@H](C3=O)[C@H]3C=C[C@@H]4C3)cc2)sc2c1CCCC2	i	-19%
6	CCCc1nnc(NC(=O)Cc2coc3ccc(C(C)C)cc23)s1	-10%	-4%
7	COc1ccc(NC(=O)c2cc(-c3ccc4c(c3)OCO4)on2)c(OC)c1	-2%	0%
8	CCC(C)NC(=O)c1ccc2c(c1)N(Cc1ccccc1F)C(=O)c1ccccc1S2=O (stereo not drawn)	-4%	4%
9	O=C(CSc1nnc(C2CC2)n1Cc1ccccc1)c1ccc(S(=O)(=O)N2CCOCC2)cc1	-9%	-10%
10	COC(=O)C1NC(=O)N2C(C(=O)OC)C(C)(C)S[C@H]12 (stereo partly drawn)	i	1%&-3%
11	Cn1ccc2c(-c3ccc4c(c3)OCCO4)cc3c(c21)C1CCC3O1 (stereo not drawn)	i	-5%
12	O=C1c2ccccc2C(=O)N1CCCCCc1nc(-c2ccccc2)no1	/	-11%
13	CCC1CCCCN1C(=O)c1sc2nc(C)nc(N(CC)CC)c2c1C (stereo not drawn)	-5%	-17%
14	COc1ccc(C(=O)NCCc2cc3c(OC)ccc(OC)c3[nH]c2=O)cc1OC	-22%	?
15	Cc1ccc(S(=O)(=O)CCC(=O)OCC(=O)N2CCN(S(=O)(=O)c3ccccc3)CC2)cc1	i	-12%
16	Cc1cccc(C)c1-n1nnnc1C(c1cccs1)N1CCN(C/C=C/c2ccccc2)CC1 (stereo not drawn)	-6%	-16%
17	Cc1cc(C)n2nc3ccccc3c2n1	-11%	-7%
18	CCCc1cc2c(cc1N(C)S(=O)(=O)c1ccccc1)OCO2	-4%	-1%
19	COc1ccc(NC(=O)C[C@H]2C(=O)N(CCc3ccccc3)C[C@@H]2C)cc1	-23%	-8%
20	COc1c(C)cc(S(=O)(=O)NCc2ccccn2)c(C)c1C	i	-12%
21	COc1cccc(OCc2cc(C(=O)NCc3ccccn3)no2)c1	-3%	-19%
22	CCCCC(=O)Nc1ccc(NC(=O)c2ccccc2[N+](=O)[O-])cc1OC	-15%	-8%
23	Cc1ccc(S(=O)(=O)NC(CC(C)C)C(=O)N2CCCC2)cc1 (stereo not drawn)	-14%	-8%
24	Cc1ccc(CNc2nc(NC(C)C)nc3ccsc23)c(C)c1	?	?
25	Cc1ccc(CSCc2ccc(C(=O)NCC3CCCO3)o2)cc1 (stereo not drawn)	-18%	-2%
26	CN1CCC(=O)N(CCOc2ccccc2)CC1	-3%	-14%
27	CCN(C[C@H]1N[C@@](Cc2ccccc2)(C(=O)OC)[C@H]2C(=O)N(Cc3ccccc3)C(=O)[C@@H]12)C(=O)C1CCCCC1	?	?
28	O=C(COCC(=O)N/N=C/c1ccccc1F)N/N=C/c1ccccc1F	i	-9%
29	O=C(Nc1ccc(N2CCN(Cc3ccccc3Cl)CC2)cc1)c1cccnc1	-22%	-11%
30	C/C(=N/NC(=O)c1cccs1)c1ccc(NC(=O)COc2ccc(Cl)cc2Cl)cc1	i	-13%
31	CN(C)N1C(=O)CC(N2CCCCC2)C1=O (stereo not drawn)	6%	-10%
32	NC(=O)C1(NC(=O)[C@@H]2CC3(CC(c4cccc(NC(=O)c5cc([N+](=O)[O-])cc([N+](=O)[O-])c5)c4)=NO3)CN2C(=O)c2ccccc2)CC1 (stereo partly drawn)	-5%	-1%
33	C[C@H]1Cn2cnc(C(=O)Nc3cccc(Cl)c3)c2C(=O)N1	?	?
34	COc1ccc(Cc2nn3c(-c4ccccc4Br)nnc3s2)cc1	-13%	-14%
35	CCc1ccc(C(=O)Nc2nc(C)cs2)s1	-18%	-18%
36	C=CCn1c(-c2cccc(OC)c2)n[nH]c1=S	-12%	-15%
37	O=C(COC(=O)CNS(=O)(=O)c1cccc(F)c1)NCCc1ccccc1	-14%	-9%
38	Cc1cc(NC(=O)C2CC(c3cccc(Br)c3)=NO2)no1 (stereo not drawn)	-11%	-6%
39	CN1C(=O)C(C)(C)N(C(=O)c2cccc([N+](=O)[O-])c2)c2ccccc21	?	-9%
40	COc1ccc(-c2nnc(SCC3CCCO3)n2C)cc1 (stereo not drawn)	i	-4%
41	COc1ccccc1CNc1nc(-c2ccco2)nn1S(=O)(=O)c1ccc(C)cc1	-9%	-11%
42	O=C(NCCC1=CCCCC1)C1CCN(S(=O)(=O)c2ccccc2)CC1	-11%	2%
43	O=S(=O)(c1ccc(OC(F)(F)F)cc1)N1CCN(c2nc(-c3ccccc3)nc3ccccc23)CC1	-11%	-13%
44	COc1ccc(-c2nn(CCC#N)cc2/C=N/O)cc1	2%	-6%
45	COc1ccc2oc(C(=O)N3CCN(S(=O)(=O)c4cccc([N+](=O)[O-])c4)CC3)c(C)c2c1	?	1%
46	CC(C)C(NS(=O)(=O)c1cccs1)C(=O)N1CCc2ccccc2C1 (stereo not drawn)	/	?
47	Cc1[nH]n(-c2ccccc2)c(=O)c1C=NCCc1ccccc1	18%	-11%
48	CC(=O)CCc1ccc2oc(C(=O)O)c(C)c2c1	/	14%
49	COCCCNC(=O)c1c(NC(=O)c2nc(S(C)(=O)=O)ncc2Cl)sc2c1CCCC2	?	?
50	COc1ccccc1Cc1c(-c2cccc(Br)c2)nc2c(C)cc(Br)cn12	-15%	-23%
51	Cn1c(N)c(C(=O)COC(=O)C2CCC(C(C)(C)C)CC2)c(=O)n(C)c1=O (stereo not drawn)	/	?
52	CC(C)(C)n1ncc2c(=O)n(Cc3ccc(Cl)cc3Cl)cnc21	/	-4%
53	Cc1ccc(C2=Nc3ccccc3N(CC(=O)Nc3cccc(F)c3)C(=O)C2)cc1C	?	-18%
54	CSc1ccccc1NC(=O)CN(C)CC(=O)Nc1ccc(S(=O)(=O)N2CCCC2)cc1	i	-15%
55	CCN1CCN(CCCNC(=O)C2c3ccccc3C(=O)N(C)C2c2ccc(OC)cc2)CC1 (stereo not drawn)	-2%	-9%
56	O=C(Nc1ccc2c(c1)oc1ccc(S(=O)(=O)N3CCCC3)cc12)C1CC1	?	?
57	CC1CCCC(C)N1C(=O)COC(=O)CNC(=O)C12CC3CC(CC(C3)C1)C2 (stereo not drawn)	-12%	-1%
58	O=C(Nc1cccc(C(=O)O)c1)/C(=C\c1ccco1)NC(=O)c1ccc(Br)o1	-14%	15%
59	O=C(N/N=C/c1ccco1)c1ccc(NC(=O)c2ccccc2Cl)cc1	-5%	1%
60	CC(=O)Nc1ccc(C(=O)COC(=O)C2CCCCC2)c(F)c1	i	-8%

Following part.
nr	SMILES	VACV mCherry inh	VACV Venus inh
61	O=C(COC(=O)c1cccc(S(=O)(=O)N2CCc3ccccc3C2)c1)NCc1ccco1	/	-5%
62	CC(=O)Nc1sc(C)c(C)c1C(=O)OCCOc1ccccc1	-7%	-1%
63	O=C(NCCc1ccccc1)c1ccc(NC(=O)C2CCC2)cc1	-5%	-10%
64	CC[N+](CC)(CC#CCO)CC#Cc1ccccc1	i	-12%
65	Cc1nn(-c2ccccc2)c(C)c1NC(=O)COc1ccc(Cl)cc1Cl	-13%	?
66	NC(=O)[C@H]1CC2(CC(c3cccc(NC(=O)COc4ccc(Cl)cc4)c3)=NO2)CN1C(=O)[C@H]1CCC(=O)N1 (stereo partly drawn)	-3%	-2%
67	C[C@@H](C(=O)Nc1nc2ccc(F)cc2s1)N1C(=O)C2CC=CCC2C1=O (stereo partly drawn)	i	-3%
68	CN(C)S(=O)(=O)c1ccc(NC(=O)COC(=O)c2ccccn2)cc1	/	-5%
69	COc1ccccc1-n1ccnc1SCC(=O)NC1CCCC1	-9%	0%
70	CC12CC(NC(=O)N1CCc1ccccc1)c1cc(Cl)ccc1O2 (stereo not drawn)	i	-19%
71	O=C(NCC1CCCO1)c1ccccc1NS(=O)(=O)c1ccc(F)cc1 (stereo not drawn)	-20%	-27%
72	COc1ccc(S(=O)(=O)N2CCOC2CNC(=O)C(=O)NCc2ccc(F)cc2)cc1OC (stereo not drawn)	-5%	-25%
73	Cc1sc2ncn(CCn3cnc4sc(C)c(C)c4c3=O)c(=O)c2c1C	/	-15%
74	COc1ccccc1NC(=S)NCCc1ccc(Cl)cc1	-27%	-22%
75	Clc1cc2c(c(CSc3nc4ccccc4n4cccc34)c1)OCOC2	-8%	7%
76	CCOc1ccc(/C=N/NC(=O)c2c(C)n(C)c3ccc(OC)cc23)cc1	-22%	-20%
77	O=C(NC(=S)Nc1ccccc1N1CCCC1)c1ccco1	-13%	-1%
78	CCOC(=O)c1[nH]cnc1C(=O)Nc1cccc(OC)c1	-2%	8%
79	NC(=O)c1nc(C2CCCCC2)nc2c1[nH]c(=O)n2-c1ccc(F)cc1	i	-11%
80	CCCCc1nnc(NC(=O)C(=O)OCC)s1	i	-14%
81	COC(=O)C1=C(c2ccccc2)C[C@@H]2CC[C@H]1N2C(=O)N1CCCC1	-1%	-18%
82	CCOc1ccc(-c2ccc(NS(=O)(=O)c3cc(C)ccc3OC)cc2)nn1	-4%	-13%
83	CN(C)S(=O)(=O)Oc1cccc(C(=O)Nc2ccc([N+](=O)[O-])cc2)c1	-24%	-20%
84	COc1ccc(N2CC(C(=O)Nc3ccc(S(=O)(=O)N4CCCCC4)cc3)CC2=O)cc1 (stereo not drawn)	-6%	-23%
85	O=C(NC(=S)NCC1CCCO1)c1ccc(Cl)cc1 (stereo not drawn)	i	-10%
86	Cc1cc(C)c2nncn2n1	-20%	-4%
87	CC1CCCCN1CCCn1c(=S)[nH]c2ccccc2c1=O (stereo not drawn)	/	-4%
88	O=C(Cc1ccccc1)Nc1sc2c(c1C(=O)Nc1ccc(Br)cc1)CCC2	-6%	0%
89	COc1ccc(C2NC(c3ccc4c(c3)OCO4)=CC(c3ccccc3O)N2)cc1OC (stereo not drawn)	-8%	11%
90	O=C(CCc1nnc(-c2ccc3c(c2)OCO3)o1)N1CCC(c2ccc(F)cc2)C1 (stereo not drawn)	-4%	-12%
91	COc1nn(-c2ccccc2)c(=O)c(Cl)c1Cl	?	28µM*
92	O=C1CCc2cc(NS(=O)(=O)c3ccccc3)cc3c2N1CCC3	i	-11%
93	COc1ccc(-n2c(=O)c3c4c(sc3n3c(=S)[nH]nc23)COC(C(C)C)C4)cc1 (stereo not drawn)	i	-18%
94	COC(=O)CN(c1cccc(OC)c1)S(C)(=O)=O	-4%	-12%
95	O=C(c1ccccc1)c1ccccn1	i	-11%
96	Cc1noc(NS(=O)(=O)c2ccc(NC(=O)c3ccc(OC(C)C)cc3)cc2)c1C	i	-4%
97	O=C(COC(=O)c1ccccc1NC(=O)c1ccco1)NC1CCS(=O)(=O)C1 (stereo not drawn)	-10%	-7%
98	C[C@@H]1Cn2cnc(C(=O)Nc3ccccc3)c2C(=O)N1	?	?
99	Cc1cc(=O)n2[nH]c(COc3ccccc3)nc2n1	/	-1%
100	Cc1ccc(C(=O)NCCc2nnc3ccc(SCC(=O)Nc4ccccc4F)nn23)cc1	i	-12%
101	CC(=O)c1ccc(OCC(=O)N(C2CCCCC2)C2CCS(=O)(=O)C2)cc1 (stereo not drawn)	i	-18%
102	CCOc1ccc(C(=O)Nc2nc3ccccc3[nH]2)cc1OCC	?	-29%
103	COCCNC(=O)CNS(=O)(=O)c1ccc2nc(C)sc2c1	-20%	-8%
104	COc1ccc([C@H]2CC(=O)C[C@@H](CCn3cc(-c4ccccn4)nn3)O2)cc1	24%	4%
105	COc1cc(/C=N/NC(=O)c2ccc3c(c2)OCCO3)cc(Br)c1O	-6%	-6%
106	Cc1c(NC(=O)CC(C)C)c(=O)n(-c2ccccc2)n1C	-9%	1%
107	Cc1cnc(NC(=O)C2COc3ccccc3O2)s1 (stereo not drawn)	/	-10%
108	Cc1ccc(Cn2ccn(CC(=O)Nc3c(C)cc(C)cc3C)c(=O)c2=O)cc1	-1%	-5%
109	COC(=O)C/C=C/N(Cc1ccccc1OC)S(=O)(=O)CCl	i	-8%
110	COc1ccc(N2CCCn3c2nc2c3c(=O)n(Cc3ccc(F)cc3)c(=O)n2C)c(OC)c1	-2%	9%

Given field by field: part of the list above.
[107] Cc1cnc(NC(=O)C2COc3ccccc3O2)s1 (stereo not drawn)
- VACV mCherry inh: /
- VACV Venus inh: -10%
[106] Cc1c(NC(=O)CC(C)C)c(=O)n(-c2ccccc2)n1C
- VACV mCherry inh: -9%
- VACV Venus inh: 1%
[109] COC(=O)C/C=C/N(Cc1ccccc1OC)S(=O)(=O)CCl
- VACV mCherry inh: i
- VACV Venus inh: -8%
[108] Cc1ccc(Cn2ccn(CC(=O)Nc3c(C)cc(C)cc3C)c(=O)c2=O)cc1
- VACV mCherry inh: -1%
- VACV Venus inh: -5%
